Beta2AR agonist: human beta-2 adrenergic receptor agonism by FAP; P07550; Am2.2-beta2AR cells, FAP receptor internalization, flow cytometry; reference of the scale not given here; response, % (concentration not given with the values); 0.43% of 340,000 active; AID 504454;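 active = response above a set limit, near 3 SD of response in nonfluorescent compounds, cut at about 42% in these data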;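 also: stock transfer was 100 nL into about 11 µL; a reference agonist was the positive control; negative values mostly stem from fluorescent compounds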
RanGTP-Impb inh: inhibitors of RanGTP-importin-beta interaction, primary screen, biochemical, FRET, CFP-Ran, YFP-importin-beta, homogeneous. cell-free CFP-Ran/YFP-importin-beta FRET ratio. AID 2216. inhibition, % (no concentration beside the values). 1.1% of 300,000 active;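 active = most replicates above 15%; inconclusive = exactly half above 15%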;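 also: 0% = DMSO wells and 100% = Ran loaded with GDP instead of GTP; wells of about 40 µL received 100 nL stock; the first replicate is given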
ALR H2O2 inh: blocks human ALR sulfhydryl oxidase activity. P55789. purified ALR, DTT oxidation, H2O2 HRP-luminol luminescence. inhibition, % (no concentration beside the values). 3.8% of 290,000 active. AID 485317;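 active = mean and each replicate at 75% or more; inconclusive = only one of the two met; inactive = neither met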;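 also: stock transfer was 7.5 nL into about 7.5 µL; 0% = neutral wells and 100% = wells with inactivated enzyme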
Target sequence (P55789 whole entry, looked up): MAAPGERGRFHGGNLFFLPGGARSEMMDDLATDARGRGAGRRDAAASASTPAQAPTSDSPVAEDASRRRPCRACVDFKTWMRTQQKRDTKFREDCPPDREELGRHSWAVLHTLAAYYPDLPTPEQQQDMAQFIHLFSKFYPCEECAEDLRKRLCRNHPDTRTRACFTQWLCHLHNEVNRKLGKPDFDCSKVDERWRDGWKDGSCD
HNF4A DNA FP: change in binding of human HNF4 alpha to DNA; 0.3% of 360,000 active; AID 1224865; P41235; HNF4a-FITC DNA binding, fluorescence polarization, 1 h; activity change, % at 10 µM; in the data active = activity change above about 30%, passing the limit was not always enough;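 also: controls were the assay level and a saturating level of protein; the project sought stronger binding though the title names inhibitors; some compounds called inactive have numbers as strong as hits; positive values seem to mean higher polarization but the record does not say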
Target sequence (P41235 whole entry, looked up): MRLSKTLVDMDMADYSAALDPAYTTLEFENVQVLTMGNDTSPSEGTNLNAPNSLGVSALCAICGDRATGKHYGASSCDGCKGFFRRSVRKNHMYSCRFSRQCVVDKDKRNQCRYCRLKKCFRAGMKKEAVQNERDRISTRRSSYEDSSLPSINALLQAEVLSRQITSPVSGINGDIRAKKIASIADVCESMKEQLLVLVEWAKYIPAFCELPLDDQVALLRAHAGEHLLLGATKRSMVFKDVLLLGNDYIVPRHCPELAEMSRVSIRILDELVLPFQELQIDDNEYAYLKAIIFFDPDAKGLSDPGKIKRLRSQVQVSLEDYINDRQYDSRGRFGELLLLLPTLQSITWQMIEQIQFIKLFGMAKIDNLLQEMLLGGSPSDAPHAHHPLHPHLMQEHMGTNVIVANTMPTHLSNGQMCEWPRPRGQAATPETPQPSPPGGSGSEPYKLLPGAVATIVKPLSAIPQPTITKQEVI
Vif A3G: inhibitors of Vif binding to APOBEC3G peptide, primary screen, biochemical, TR-FRET, GST-Vif 1-94, biotin-A3G peptide, dose response retest (AID 1117319). inhibition, %, or IC50 in µM where a hit was titrated. 0.57% of 260,000 active. TR-FRET GST-Vif / biotin-A3G peptide binding; higher % means a stronger effect; test concentration not given here; strong numbers were not always called active;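 active = above the screen mean plus three standard deviations and confirmed in dose response; inconclusive = results disagree or hit not tested in dose response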;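 also: Vif residues 1-94 fused to GST binding biotinylated APOBEC3G peptide 110-148; 0% = full assay without inhibitor and 100% = GST in place of GST-Vif; retest series ran down from 100 µM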
Calb FLC: C. albicans growth modulation with fluconazole; 0.57% of 300,000 active; AID 1979; growth inhibition, % (concentration not given with the values); C. albicans CaCi-2 (fluconazole-resistant clinical isolate) + fluconazole, Alamar Blue growth, 48 h;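 active = most replicates above 75%; inconclusive = exactly half above 75%; inactive = most below 75%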;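 also: all wells also contain fluconazole at 8 µg/ml as a sub-toxic cotreatment; 0% = median of DMSO wells and 100% = median of geldanamycin control wells; wells of about 8 µL received 7.5 nL stock; the first replicate is given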
LANA-H2B inh: blocks KSHV LANA binding to histone H2A/H2B | cell-free LANA-H2A/H2B peptide, fluorescence polarization | inhibition, % (no concentration beside the values) | AID 2629 | 0.6% of 320,000 active; in the data active = inhibition mostly above about 10%, no sharp cut-off; inactive = mostly below about 6.7%;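 also: stock transfer was 7.5 nL into about 10 µL; 0% = median of vehicle wells and 100% = median of positive control wells; one replicate is shown; the record names a cut of 25% in any replicate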
* hit, by the source's call; ? = inconclusive; / = not tested or not shown; & = joins results of further samples.

SMILES	Beta2AR agonist	RanGTP-Impb inh	ALR H2O2 inh	HNF4A DNA FP	Vif A3G	Calb FLC	LANA-H2B inh
CCCCn1c(SCC(=O)Nc2nnc(C(C)C)s2)nc2c1c(=O)n(C)c(=O)n2C	0	3.0	-1	0.9	3%&-6%	7	-5.7
Cc1cc(C)c(S(=O)(=O)N2CCN(C(=O)c3cc4ccccc4o3)CC2)c(C)c1	0	/	/	-3.4	2%	/	/
Cc1ccc(-n2c(SCn3nnc4ccccc4c3=O)nnc2-c2cccnc2)c(C)c1	0	5.7	0	2.3	9%&7%	11	-3.1
COc1ccc(OC)c2sc(NC(=O)c3ccc(S(=O)(=O)N(C)C)cc3)nc12	1	0.5	-14	0.3	-7%	-6	5.5
CC1C(=O)C(C)C(c2ccc([N+](=O)[O-])cc2)NC1c1ccc([N+](=O)[O-])cc1 (stereo not given)	11	2.3	/	2.2	12%	0	-2.3
CCOC(=O)Cc1csc(NC(=O)c2sc3nc4c(C)cc(C)cc4cc3c2N)n1	-72	-4.4	-15	40*	13%	-2	1.4
O=C(NCCN1CCCCC1)c1ccco1	-7	2.5	2	0.1	3%	-5	-3.2
O=C(CSc1nnc(CNc2ccccc2)o1)c1ccc2c(c1)OCCO2	0	2.2	3	1.9	-2%	-5	4.4
COc1ccc(C(=O)NCCSc2ccccc2)cc1OC	4	-2.7	-7	2.4	-7%	8	-0.4
Cc1ccc(C)c(S(=O)(=O)N2CCN(C(=O)c3cnccn3)CC2)c1	5	1.9	0	2.7	-8%	29	0.0
Cc1ccc(OCCSCc2nnc(NC(=O)Nc3cccc(Cl)c3)s2)cc1	4	5.4	-10	6.5	-6%	-12	3.0
COc1ccc(/C=N\NC(=O)c2cccc([N+](=O)[O-])c2)cc1Cn1cc([N+](=O)[O-])cn1	/	-1.2	1	/	9%	0	-0.7
COc1cc(C(=O)N/N=c2/sc3ccccc3n2C)cc(OC)c1OC	-1	2.0	15	-2.2	/	1	2.7
CCCC1C2C(=O)N(c3ccc(OC)cc3)C(=O)C2ON1c1ccccc1 (stereo not given)	4	-3.1	-3	-4.5	4%	20	-12
CC1CCN(S(=O)(=O)c2ccc(C(=O)NCc3ccco3)cc2)CC1	-5	2.1	2	-2.9	0%	-1	-3.3
CCCc1[nH]nc2c1C1(CCN(C(=O)OCc3ccccc3)CC1)C(C#N)=C(N)O2	1	-3.9	48	1.1	10%	5	4.8
COCCOC(=O)C1=C(C)N=C2SCCC(=O)N2C1c1cccs1 (stereo not given)	3	-1.0	-10	0.6	4%	23	0.9
CC(c1nnc(SCC(=O)c2c(N)n(C)c(=O)n(C)c2=O)n1-c1ccc(Cl)cc1)N(C)C (stereo not given)	4	1.5	3	-5.0	-3%&-7%	2	-2.5
O=C(Nc1nc2ccccc2s1)c1cccc(N2C(=O)CCC2=O)c1	6	-1.2	/	3.8	-19%	-15	1.2
CC(=O)c1ccc(NC(=O)CSC(=S)N2CCCC2)cc1	0	-1.0	93*	-0.4	6%	-20	-4.2
O=C(Cc1cccs1)NCCS(=O)(=O)N1CCN(c2ccccc2F)CC1	-7	1.8	-2	-1.0	8%	-3	-3.1
COc1ccc(C(=O)Nc2cc(Cl)ccc2N2CCOCC2)cc1S(=O)(=O)N1CCOCC1	7	/	/	1.7	-5%	/	/
NC(=O)C1CCN(C(=O)CC2(CC(=O)O)CCCCC2)CC1	4	2.8	2	2.3	28%	-17	2.4
O=C(NCc1ccccc1)c1cc(-c2cccs2)on1	-14	4.0	-21	2.2	-3%	-15	-2.6
C[C@@H]1CC[C@H](O)/C=C/C(=O)O[C@H](C)CC[C@H](O)/C=C/C(=O)O1	3	4.1	-9	-6.4	/	15	4.8
CCn1ncc(CNC(=O)CCSc2nc(-c3ccco3)cc(C(F)(F)F)n2)c1C	4	3.9	-1	-3.6	10%	-7	1.1
Cc1ccccc1NC(=O)c1ccc(NC(=O)C2CC(=O)OC23CCCCC3)cc1 (stereo not given)	-6	1.8	/	-3.3	/	-12	/
CCCNC(=O)CCC(NS(=O)(=O)c1ccc(C)cc1)C(=O)NCCC (stereo not given)	7	6.5	-7	-0.8	22%	-1	-2.3
CCCN1C[C@H](CSC)C[C@@H]2c3cccc4[nH]cc(c34)C[C@H]21	5	-3.3	/	-1.9	29%	-37	3.2
O=C(CCC(=O)c1ccc(Oc2ccccc2)cc1)Nc1ccc(C(=O)O)cc1	-5	-2.6	2	2.0	/	17	-0.7
Cc1cc(OC(=O)c2c(Cl)cc(Cl)cc2Cl)nc(C)n1	-6	1.4	6	0.6	-2%	12	0.0
O=C(CSCc1ccc([N+](=O)[O-])cc1)NC1CC2CCC1C2 (stereo not given)	1	-6.3	10	-2.3	/	-14	0.8
CC1=NN(C(=O)COc2ccc(C)c(C)c2)C(O)(c2ccc(Cl)cc2)C1 (stereo not given)	5	-0.8	10	-2.7	/	2	3.8
CSc1nc(Sc2ccccc2Cl)c2ccccc2n1	-3	-1.3	-7	0.0	-25%	7	4.0
O=P(c1ccccc1)(c1ccccc1)C(c1ccco1)N1CCOCC1 (stereo not given)	7	-1.1	-13	-1.8	-2%	-3	2.2
CC1(c2ccccc2)NC(=O)N(CC(=O)Nc2ccc(S(=O)(=O)Nc3ncccn3)cc2)C1=O (stereo not given)	0	3.7	98*	0.8	3%	-5	0.9
COC(=O)c1cc(OC)c(OC)cc1NC(=O)c1csc(C)c1	6	-0.8	-5	-1.1	-7%	15	3.3
Cc1ccc2c(COC(=O)CNC(=O)c3ccco3)cc(=O)oc2c1C	5	/	/	-2.0	-12%	/	/
COc1ccccc1N(CC1CO1)S(=O)(=O)c1ccccc1 (stereo not given)	-1	2.2	-37	3.0	/	-3	4.8
O=C(Oc1ccccc1)c1ccc(COC(=O)c2cnccn2)cc1	-2	1.1	-2	2.2	3%	-42	0.2
CC1CC2=C(C(=O)O1)C(c1ccc(Cl)cc1)Nc1ccccc1N2 (stereo not given)	-23	-1.2	99*	1.8	-1%	-22	-5.2
CC(C)c1ccc(NC2CCCN(C(=O)c3ccc(Cn4cnnn4)cc3)C2)cc1 (stereo not given)	-4	2.7	59	-2.5	/	16	1.7
Cc1ccc(-c2ccc(/C=N/NC(=O)Cc3nnc(N)s3)o2)cc1Cl	17	-3.0	-4	9.6	11%	9	2.6
N#Cc1c2c(c(=S)n(-c3ccccc3)c1N)CCCC2	9	-0.6	-15	-3.1	27%	-9	5.0
CCCCN1C(=N)N([C@@H](CCC)CN2CCC[C@H]2CN2C(N)=NC[C@H]2CC(C)C)C[C@H]1Cc1ccccc1	-3	/	/	-0.2	-14%	/	/
Cc1cc(=O)oc(C)c1C(=O)Nc1cccc2nonc12	9	-2.5	5	-0.5	23%	-7	2.7
Cc1ccc(C(=O)CSc2nnc(-c3ccccc3N)n2C)cc1	-8	0.6	62	-2.2	4%	-1	-2.7
COCc1cc(N2CCOCC2)nc(SCc2ccc(Cl)cc2)n1	-13	1.7	32	-2.7	5%	25	1.9
COc1cc(Nc2ccccc2Cl)c([N+](=O)[O-])nc1[N+](=O)[O-]	11	-3.4	38	1.6	2%	-6	-2.8
COc1ccccc1C1/C(=C(/O)c2ccccc2)C(=O)C(=O)N1CC(C)O (stereo not given)	-3	-0.9	-6	1.2	?	1	3.3
Cc1noc(C)c1S(=O)(=O)N1CCCCC1	6	-1.5	-6	1.8	5%	-15	3.1
Cc1nn(Cc2ccccc2)c(C)c1NC(=O)CSc1nc(C2CC2)nc2c1cnn2-c1ccccc1	-9	3.5	-5	0.8	-6%&5%	-3	3.9
Cc1cccc(N(Cc2cc3ccc(C)cc3[nH]c2=O)S(=O)(=O)c2ccccc2)c1	-8	-3.8	-19	0.5	3%	7	-3.5
O=C(NCc1ccco1)C12CC3CC(CC(C3)C1)C2	8	4.7	9	5.2	-3%	-9	2.4
COc1ccc(CCNC(=O)CSc2nc3ncccc3[nH]2)c(OC)c1	-3	-0.4	-10	-2.9	/	-2	1.2
COc1ccccc1N1CCN(S(=O)(=O)c2cccc3nsnc23)CC1	-2	2.1	34	3.5	17%	7	-4.7
COc1cccc(C(C(=O)NCc2ccco2)N(C(=O)Cn2nnc3ccccc32)C2CC2)c1OC (stereo not given)	7	-1.2	-2	-0.2	1%&-1%	5	-3.2
Oc1cc2ccccc2cc1-c1nnc2n1-c1ccccc1SC2	-5	-1.9	-19	-1.6	-1%	-13	3.1
O=C(COc1ccc(Br)cc1)OCC(=O)N1CCOCC1	-13	/	/	-0.7	/	/	2.3
CCOC(=O)N1CCN(C(=O)CSc2nnc(-c3cccc(OC)c3)o2)CC1	-16	/	2	3.0	-10%&25%	-6	-9.0

Other compounds follow:
SMILES	Beta2AR agonist	RanGTP-Impb inh	ALR H2O2 inh	HNF4A DNA FP	Vif A3G	Calb FLC	LANA-H2B inh
Cc1cc(C)cc(N=c2c([N+](=O)[O-])nn(-c3ccc(Cl)cc3)n2O)c1	-16	?	/	2.5	0%	26	0.4
CCOc1ccc(S(=O)(=O)Nc2cccc(N(C)S(C)(=O)=O)c2)cc1	2	-1.4	-8	-0.7	-5%	0	-2.3
CSCCC(NC(=O)c1ccccc1)C(=O)Nc1ccncc1 (stereo not given)	0	/	-2	0.1	-6%	/	4.0
CC(C)c1nc2oc3ccccc3c(=O)c2c(=O)n1-c1ccccc1	-11	-2.2	-8	-0.8	5%	27	-3.6
O=C(Nc1ccc(Br)cc1)c1cnccn1	8	-2.4	-6	7.1	-1%	-3	-1.0
Cn1ccnc1SCC(=O)Nc1ccc(Cl)cn1	1	0.2	54	-4.4	/	4	-4.4
COc1ccc(N2CCN(Cc3nc4cc(Cl)ccc4c(=O)[nH]3)CC2)cc1	2	5.3	-2	-0.3	2%	2	-1.2
CCOc1ccc(Br)cc1CNCCN1CCOCC1	1	0.4	2	-2.8	18%	3	2.8
CCOC(=O)c1c(NC(C)=O)sc2c(O)cccc12	-3	0.3	-4	-1.6	-4%	22	-2.8
O=C(Nn1cnc2ccccc2c1=O)c1c(F)cccc1F	-4	4.8	3	3.5	-13%	-3	4.4
CC(=O)Nc1nc(CC(C)C)cc(-c2ccco2)c1C#N	-9	4.0	-7	-2.6	-1%	-4	-2.5
O=C(N/N=C\c1ccc(O)c([N+](=O)[O-])c1)c1ccccc1-n1cccc1	6	-2.4	52	-0.3	10%	-3	1.6
COCCn1c(C)cc(C(=O)CSc2nnc(-c3cccnc3)n2-c2ccccc2F)c1C	-4	2.4	1	6.2	?	9	-2.8
O=C(c1ccccc1Cl)N1CCN(Cc2ccc3c(c2)OCO3)CC1	-5	-1.9	0	0.2	/	-124	0.0
O=C(c1ccc(NC(=O)C(c2ccccc2)c2ccccc2)cc1)c1ccc(C(=O)O)c(C(=O)O)c1	-1	-0.9	94*	0.7	-6%	-2	12
O=C(NCC(c1ccc(F)cc1)N1CCOCC1)c1cc(F)c(F)c(F)c1F (stereo not given)	0	-6.7	-6	1.1	-10%	-5	-2.2
COc1cc(Nc2ncnc(N)n2)cc(OC)c1OC	3	3.7	-3	-2.2	0%	26	3.0
Cc1ccccc1-c1nc(CN2CCC(C(=O)NCCCN3CCCC3)CC2)c(C)o1	-17	?	-41	-0.8	0%	22	-2.3
CCc1nnc(NC(=O)c2ccc(N3C(=O)CCC3=O)cc2)s1	10	-3.8	-25	-0.1	1%	5	-0.3
O=C1N2CCSC2=NC1(Nc1nccs1)C(F)(F)F (stereo not given)	-4	-5.1	7	-0.5	-1%	2	-0.9
O=C1C[C@@H]2CCN3C(=O)CCC[C@@H]([C@H]23)[C@H]1Cc1ccccc1	-10	/	/	-3.8	-7%	/	/
